Bioassay records from PubChem BioAssay.
GLA inh pH 4.5: qHTS Assay for Inhibitors of Human alpha-Galactosidase at pH 4.5 | purified enzyme, 4-MU-alpha-Gal fluorescence, pH 4.5 | activity change, negative = inhibition, % at 105 µM | 230,000 tested, under 10 active; inconclusive = small, poorly fitted or top-dose-only inhibition, or a rising curve; inactive = flat fitted curve, though single readings scatter; no compound was filed as active;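 note: 0% = full activity with enzyme and -100% = basal without enzyme; dose as in the result columns while the protocol names 77 µM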
Rango-impB inh: qHTS Assay for Inhibitors of Rango (Ran-regulated importin-beta cargo) - Importin beta complex formation; Importin subunit beta-1 (Homo sapiens), Q14974; Rango CFP/YFP FRET sensor + importin beta, 45 min; Potency, µM (titrated, usually from 92.2 µM), for the others: top-dose inhibition of complex formation; 0.031% of 340,000 active; AID 540263, 2011; active = rising FRET ratio curve, often small or poorly fitted; inconclusive = mostly compound fluorescence or quenching in the first reads; inactive = flat curves in all reads;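 note: potency is the fitted concentration of half-maximal effect; 0% = DMSO wells and 100% = buffer wells lacking importin beta; nearly all actives have a fitted effect of over 15% in size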
Target sequence (Q14974 whole entry, looked up): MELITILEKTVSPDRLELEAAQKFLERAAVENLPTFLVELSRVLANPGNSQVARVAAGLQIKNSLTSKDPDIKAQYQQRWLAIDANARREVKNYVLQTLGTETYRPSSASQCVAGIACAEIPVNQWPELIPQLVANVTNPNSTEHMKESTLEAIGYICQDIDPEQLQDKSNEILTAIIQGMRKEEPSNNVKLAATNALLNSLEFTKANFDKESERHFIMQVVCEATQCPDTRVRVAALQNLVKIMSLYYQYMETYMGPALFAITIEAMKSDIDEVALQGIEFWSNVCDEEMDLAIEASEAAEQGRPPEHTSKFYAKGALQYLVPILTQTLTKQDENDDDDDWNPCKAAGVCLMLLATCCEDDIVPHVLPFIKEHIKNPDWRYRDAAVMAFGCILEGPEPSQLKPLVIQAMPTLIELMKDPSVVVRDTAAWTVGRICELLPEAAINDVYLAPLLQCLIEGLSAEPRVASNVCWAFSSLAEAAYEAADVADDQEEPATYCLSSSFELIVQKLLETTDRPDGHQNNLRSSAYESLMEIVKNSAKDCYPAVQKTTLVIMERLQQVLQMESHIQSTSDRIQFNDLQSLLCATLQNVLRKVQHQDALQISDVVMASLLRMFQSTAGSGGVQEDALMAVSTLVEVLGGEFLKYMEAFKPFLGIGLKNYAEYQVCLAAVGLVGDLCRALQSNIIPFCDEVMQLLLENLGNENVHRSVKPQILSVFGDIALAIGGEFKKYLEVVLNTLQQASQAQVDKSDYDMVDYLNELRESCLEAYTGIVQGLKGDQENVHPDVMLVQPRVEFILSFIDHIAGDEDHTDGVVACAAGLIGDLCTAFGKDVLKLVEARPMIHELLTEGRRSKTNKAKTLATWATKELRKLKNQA
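Inhibition scored from the CFP 486 nm/YFP 530 nm FRET ratio 45 min after adding 0.125 microM importin beta to 50 nM Rango biosensor preincubated 5 min with compound (room temperature, PBS with DTT, Tween-20, BSA). No-importin wells as positive control.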
miR-21 reporter: qHTS Assay for Modulators of miRNAs and/orActivators of miR-21. HeLa miR-21 FLuc reporter, luciferase, 48 h. Potency, µM (highest dose often 38.3 µM), for the others: at the top dose reporter change, positive = more light. 340,000 tested, under 10 active. AID 2288, 2010; active = well fitted rising curve with a large enough effect; inconclusive = small, poorly fitted or top-dose-only effect; inactive = no such curve, though single readings can be large or run the other way;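 note: % of control where 0% means no effect; miR-21 action dims this reporter so a rising signal means less miR-21 action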
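Compounds were titrated across several concentrations (up to approximately 40 uM) and incubated 48 hours with HeLa miR-21-FLuc reporter cells (miR-21 target sequence downstream of FLuc, endogenous miR-21). Readout was firefly luciferase luminescence after lytic detection reagent.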
Rango dissoc inh: qHTS Assay for Inhibitors of RanGTP induced Rango (Ran-regulated importin-beta cargo) - Importin beta complex dissociation; Snurportin-1 (Homo sapiens) + GTP-binding nuclear protein Ran (Homo sapiens) + Importin …; Potency, µM (highest dose often 46.1 µM), inactives show at the highest dose activity change, negative = inhibition; 0.071% of 340,000 active; Biochemical FRET Rango-importin beta, RanGTP-induced dissociation; active means falling FRET ratio curve, often poorly fitted, with flat reads before Ran was added; inconclusive means other falling curves, or compound fluorescence or quenching; inactive means flat or rising ratio curve;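 note: potency is the fitted concentration of half-maximal effect; % of control where 0% means no effect; nearly all actives have a fitted effect of over 45% in size; -100% = wells without RanGTP and RCC1; the record marks most hits as doubtful in a second field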
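Rango FRET biosensor (snurportin-1 IBB flanked by N-terminal EYFP and C-terminal CFP10) at 0.1 uM, with 0.25 uM importin beta in PBS, 1mM DTT, 0.02% Tween-20, 0.1% BSA. 0.6 uM Ran, 2mM GTP and 0.2 uM RCC1 were then added for 45 min at room temperature. Inhibition read as loss of FRET rise.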
* marks the source's active call; other numbers are inactive results; ? = inconclusive; . = no result given; [ ] = remark or other dose. A portion of the library; rates above refer to the full screens.

SMILES	GLA inh pH 4.5	Rango-impB inh	miR-21 reporter	Rango dissoc inh
C=CCN(c1ccccc1OC)S(=O)(=O)c1cccc(C(=O)Nc2nnc(C3CC3)s2)c1	.	-1.0%	.	1%
COc1ccc(-c2csc(NC(=O)C3CCCCN3S(=O)(=O)c3ccccc3)n2)cc1 (centres undefined)	-7	8.6%	27%	-1%
COCCCN1C(=O)N(c2ccc(F)cc2)C(=O)C1CC(=O)Nc1ccccc1 (centres undefined)	.	-2.2%	0%	1%
Cc1cnc(NC(=O)CSc2nnc3ncccn23)s1	.	-1.9%	0%	1%
O=C(c1ccc(Cl)c([N+](=O)[O-])c1)N(c1ccccn1)c1ccccn1	-6	3.7%	5%	-4%
COc1ccc(OC)c(/C=N/n2c(C)nc3ccccc3c2=O)c1	.	0.4%	.	3%
O=C(NCc1ccccc1)NC1CCS(=O)(=O)C1 (centres undefined)	12	-1.8%	-1%	-2%
C=CCSc1nnc2n(-c3ccccc3OC)c(=O)c3c4c(sc3n12)CCC4	-10	3.6%	-7%	6%
O=C(N/N=C/c1coc2ccccc2c1=O)c1ccccc1Br	-8	0.1%	-5%	10%
Cc1nn(C)c(C(=O)N/N=C/c2cccnc2)c1Br	.	-0.1%	1%	-11%
CC(C)c1ccc(/C=C2\NC(=O)NC2=O)cc1	.	?	-26%	0%
COc1cc(C(=O)NCCNc2nc3cc(C)ccc3cc2C#N)cc(OC)c1OC	.	?	0%	?
Cc1nc(N2CCOCC2)c2cc(-c3ccccc3)sc2n1	-2	-1.6%	-40%	-5%
O=C(NC(=S)Nc1ccc(N2CCCCC2)c(Cl)c1)c1cccs1	.	-2.6%	.	12%
Cc1c(C(=O)N2CCN(C(=O)c3ccco3)CC2)oc2c(Cl)cccc12	.	3.2%	.	-11%
Cc1ccc(Cn2c(=O)sc3ccccc3c2=O)cc1	-1	0.3%	-5%	0%
COC(=O)c1ccc(S(=O)(=O)N2CCC(C(N)=O)CC2)n1C	-1	1.4%	-7%	16%
CS(=O)(=O)c1nc(S(=O)(=O)c2ccc(Cl)cc2)c(NCc2ccccn2)s1	-9	4.2%	1%	0%
O=C(O)/C=C\C(=O)Nc1ccc(N2CCN(c3cccc(Cl)c3)CC2)cc1	-22	-6.1%	-3%	10%
COc1cc(NC(=O)Cn2cnc3ccccc3c2=O)c(OC)cc1Cl	6	0.4%	1%	1%
Cc1nn(C)c(C)c1NC(=O)C12CC3CC(CC(C3)C1)C2	5	-5.1%	-7%	6%
COc1ccc(-c2cc(C3CC3)nc3sc(C#N)c(N)c23)cc1	-6	?	0%	-27%
O=C(COC(=O)c1ccc2c(c1)OCCO2)NCCc1ccc(F)cc1	.	-2.0%	.	-1%
O=C(O)c1ccccc1SCCS(=O)(=O)c1ccc(Cl)cc1Cl	.	-0.3%	-3%	1%
C=C(CCO)C1=CCN(S(=O)(=O)C(C)(C)C)[C@H]1CCO	.	3.3%	.	18%

(further entries)
SMILES	GLA inh pH 4.5	Rango-impB inh	miR-21 reporter	Rango dissoc inh
COc1ccccc1OCC(=O)Nc1ccccc1C(=O)NCc1cccnc1	.	0.4%	0%	18%
Cc1cccc(C(=O)NNC(=O)CSc2nnc(C(C)C)n2C)c1	.	5.1%	-2%	-23%
Cc1nnc(NC(=O)CN2CCN(Cc3ccccc3Cl)CC2)s1	.	1.6%	-3%	20%
c1ccc(-c2csc3nnc(SCc4ccc5c(c4)OCO5)n23)cc1	2	1.0%	-5%	1%
CC(C)C[C@@H](CN1CCCC1CN1C(=S)NC[C@@H]1Cc1ccc(O)cc1)N1C[C@H](Cc2ccccc2)N(CC2CCCCCC2)C1=S (some centres undefined)	.	0.4%	.	20%
CCOc1ccc2nc(NC(=O)C(NS(=O)(=O)c3cccc4nsnc34)C(C)C)sc2c1 (centres undefined)	-6	-1.3%	-1%	3%
COc1ccc(C(=O)OCn2nnc3ccccc3c2=O)cc1	2	-0.9%	2%	18%
CC1CCc2nn(CC(=O)N3CCCCCC3)cc2C1 (centres undefined)	2	-3.4%	-21%	10%
Cc1ccccc1NC(=O)Cn1c(=O)oc2ccccc21	.	-0.5%	4%	-3%
Cc1cccc(Oc2ccc(S(=O)(=O)N3CCCCC3)cc2N)c1	-11	0.8%	12%	21%
O=CNCC(=O)NCCc1ccc(Cl)cc1	3	-2.3%	-2%	7%
COc1ccc(C2=C(c3ccc([N+](=O)[O-])cc3)C(=O)OC2)cc1	9	-5.0%	3%	6%
Cc1ccc(Cl)cc1NC(=S)N(CCCN1CCN(C)CC1)Cc1cccs1	-8	1.1%	8%	-2%
CCc1ccccc1N(CC(=O)N1CCN(c2ccccc2)CC1)S(C)(=O)=O	5	-0.2%	-2%	-7%
CC(=O)c1cn(CC(=O)Nc2ccccc2F)c2ccccc12	.	1.2%	15%	1%
COc1ccc(NC(=O)c2sccc2C)cn1	0	-1.8%	-50%	0%
O=C(CSc1nnc(NC2CCCCC2)s1)NN1C(=O)NC2(CCCCC2)C1=O	-20	-1.5%	-2%	9%
COCCCNc1oc(-c2cccs2)nc1S(=O)(=O)c1ccc(C)cc1	-20	-1.5%	-3%	12%
c1ccc(Cn2nnc3c(NCC4CCCO4)ncnc32)cc1 (centres undefined)	3	-1.8%	-11%	15%
CC(C)(C)SCCNC(=O)c1cccc([N+](=O)[O-])c1	-19	0.5%	-25%	-8%
CC1=C(C(=O)OCC2CCCO2)C(c2coc3ccc(Cl)cc3c2=O)C2=C(CCCC2=O)N1 (centres undefined)	0[21.1 µM]	3.0%	-2%	-10%
COc1ccc(N)c2c1C(=O)c1ccccc1C2=O	-17	0.2%	-41%	-5%
O=C(Nc1cccc(S(=O)(=O)NC2=NCCC2)c1)c1cc(=O)[nH]c2ccccc12	.	0.2%	.	-6%
CC(=O)N(C(C)=O)n1c(C)nc2sc3c(c2c1=O)CCCC3	8	-4.2%	-4%	-11%
O=C(CN1c2cccc3cccc(c23)S1(=O)=O)Nc1c(F)c(F)c(F)c(F)c1F	.	2.8%	.	10%

Exported bar-delimited: entries from further up.
Molecule | GLA inh pH 4.5 | Rango-impB inh | miR-21 reporter | Rango dissoc inh
c1ccc(-c2csc3nnc(SCc4ccc5c(c4)OCO5)n23)cc1 | 2 | 1.0% | -5% | 1%
CC(C)C[C@@H](CN1CCCC1CN1C(=S)NC[C@@H]1Cc1ccc(O)cc1)N1C[C@H](Cc2ccccc2)N(CC2CCCCCC2)C1=S (some centres undefined) | . | 0.4% | . | 20%
CCOc1ccc2nc(NC(=O)C(NS(=O)(=O)c3cccc4nsnc34)C(C)C)sc2c1 (centres undefined) | -6 | -1.3% | -1% | 3%
COc1ccc(C(=O)OCn2nnc3ccccc3c2=O)cc1 | 2 | -0.9% | 2% | 18%
CC1CCc2nn(CC(=O)N3CCCCCC3)cc2C1 (centres undefined) | 2 | -3.4% | -21% | 10%

Limited to miR-21 reporter (three entries from above):
canonical_smiles | miR-21 reporter
COc1ccccc1OCC(=O)Nc1ccccc1C(=O)NCc1cccnc1 | 0%
Cc1cccc(C(=O)NNC(=O)CSc2nnc(C(C)C)n2C)c1 | -2%
Cc1nnc(NC(=O)CN2CCN(Cc3ccccc3Cl)CC2)s1 | -3%

Later entries
SMILES	GLA inh pH 4.5	Rango-impB inh	miR-21 reporter	Rango dissoc inh
O=C(c1cccc(Cl)c1)N1CCN(CCCc2ccccc2)CC1	.	3.9%	-13%	-17%
CCn1ncc2c1C(=O)NC1c3ccccc3C(=O)N21 (centres undefined)	5	-1.0%	-23%	0%
O=C(O)CC(CP(=O)(c1ccccc1)c1ccccc1)C(=O)O (centres undefined)	9	-0.1%	0%	11%
O=C(CCC(=O)Nc1ccccc1Cl)N/N=C/c1c[nH]c2ccccc12	2	-1.1%	7%	2%
Cc1cc(-c2ccccc2)cc(=O)[nH]1	.	-0.1%	.	2%
Cc1ccc(NC(=S)N2CCCCC2)cc1C	-1	-3.6%	-21%	1%
COC(=O)c1ccc(C(=O)NC2CC(C)(C)Cc3c2cnn3-c2ccc(F)cc2)nc1 (centres undefined)	.	-5.2%	-5%	-4%
Cc1c(NC(=O)c2cc(=O)[nH]c3ccccc23)c(=O)n(-c2ccccc2)n1C	8	0.1%	-1%	-12%
COc1ccc(NC(=O)CSCC(=O)N(C)Cc2ccc(Cl)c(Cl)c2)cc1	.	-2.7%	.	9%
Cc1noc(C)c1COc1ccc(C(=O)N2CCC(C)CC2)cc1	.	1.9%	.	-6%
CCc1nc(SCC(=O)NCCc2ccccc2)n[nH]1	-4	0.6%	-2%	0%
CCOC(=O)CSc1nc2sc(C(=O)O)c(C)c2c(=O)[nH]1	4	-7.6%	5%	-10%
CC1CCC(NC(=O)c2ccc(COc3ccccc3)o2)CC1 (centres undefined)	.	-1.8%	.	-5%
CC1Cc2ccccc2N1C(=O)C1CCN(S(=O)(=O)Cc2ccccc2)CC1 (centres undefined)	5	1.3%	-4%	8%
CC(=O)OC1OCCOC1NC(=S)Nc1ccc(C)cc1 (centres undefined)	4	-0.4%	1%	17%
COc1ccc(Br)cc1C(=O)Nc1nnn(C)n1	5	9.6%	-2%	-7%
S=C(Nc1ccccc1)N1CCN(C(=S)c2ccccc2)CC1	12	3.2%	-20%	16%
CCc1c(C)[nH]c2nc3ccccc3n2c1=O	8	0.3%	0%	-1%
CCc1ccc(NS(=O)(=O)c2ccc(OC)c3ncccc23)cc1	.	0.4%	1%	-23%
C=CCNC(=O)c1c(O)c2cccc3c2n(c1=O)CCC3	.	-3.3%	-5%	-12%
COc1ccc(OCCC(=O)Nc2nccs2)cc1	8	5.2%	-17%	-3%
COc1cccc(-c2cc(C(=O)NCCN3CCOCC3)no2)c1	7	-6.0%	-15%	-23%
Cc1ccc(NC(=S)Nc2cccc3cnccc23)cc1	-6	3.5%	-26%	6%
O=C(OCC(=O)N1CCCC1)c1c(Cl)cccc1Cl	.	1.0%	-8%	6%
COCCCNC(=S)N1CCN(c2nc(C)nc3sc4c(c23)CCCC4)CC1	.	-3.2%	19%	-4%

Remaining list, next part
SMILES	GLA inh pH 4.5	Rango-impB inh	miR-21 reporter	Rango dissoc inh
Cc1c(C(=O)Nc2ccc(F)cc2)oc2ccc(S(=O)(=O)N3CC(C)CC(C)C3)cc12 (centres undefined)	-3	1.9%	15%	1%
O=C(Nc1ccc(Cl)cc1)C1CCCCN1S(=O)(=O)c1ccccc1 (centres undefined)	.	-2.1%	.	6%
O=C(OCC(=O)N(Cc1ccccc1)Cc1ccccc1)c1ccccc1NCCO	.	-2.5%	.	22%
Cc1c(CCO)c(=O)n2c([nH]c3ccccc32)c1C#N	.	-3.3%	2%	-7%
CC12C(=O)N(c3nccs3)C(=O)C1(C)C1CCC2O1 (centres undefined)	.	5.0%	.	4%
CCCN1CCN(C(=O)C(NC(=O)c2ccco2)C(C)C)CC1 (centres undefined)	.	-0.3%	0%	2%
CCOCCOCCC(C(=O)OCC)P(=O)(c1ccccc1)c1ccccc1 (centres undefined)	4	1.9%	3%	22%
Cc1ccc(C)c(NC(=O)c2cc(-c3ccccc3)nn2-c2ccccc2)c1	-4	1.3%	-4%	-1%
CCN1C(=O)C(CC(=O)Nc2ccc(OC)cc2)N(CCc2ccc(OC)cc2)C1=S (centres undefined)	?	1.0%	?	1%
CC1CCN(S(=O)(=O)c2ccc(NC(=O)CN3CCN(c4ccccc4)CC3)cc2)CC1	-1	-0.6%	1%	7%
CC(NCc1ccccc1Cl)C(=O)Nc1ccc(C#N)cc1 (centres undefined)	1	1.4%	-21%	-25%
O=C(NC(c1ccc(Cl)cc1)c1c(O)ccc2ccccc12)c1ccccc1 (centres undefined)	-8	6.5%	?	4%
FC(F)(F)C(F)(F)c1nnc2ccc(-n3ccnc3)nn12	-28	-0.4%	-2%	-15%
COc1ccc(C(=O)c2sc3nc(C)cc(-c4cccs4)c3c2N)cc1	2	?	-4%	?
COc1cccc(NC(=O)CCS(=O)(=O)c2cc3c(cc2Cl)NC(=O)CO3)c1	.	-0.8%	3%	-7%
